Screening data (PubChem)
RN4220 kill: growth inhibition of S. aureus RN4220, primary screen, OD600 | 0.33% of 330,000 active | 16 h | inhibition, % (concentration not given with the values);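 active = z-score of -3 or lower and OD600 up to 0.18 on both plates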;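 note: plate controls were untreated cells for no effect and reference antibiotic for full effect; stock transfer was 100 nL into about 80 µL; one replicate is shown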
Mtb hypoxia rep: PubChem AID 1159583; M. tuberculosis hypoxia-regulated fluorescent reporter, fluorescence; fluorescence inhibition, % (concentration not given with the values); 0.1% of 300,000 active;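 active = 35 to 45% if threefold the growth effect, above 45% if 1.5-fold the growth effect; inactive = the rest, general growth blockers included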;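 note: wells of about 50 µL received 100 nL stock; 0% = vehicle wells and 100% = reference inhibitor wells; whole bacteria with a GFP reporter of the hypoxia response; strong numbers were not always called active; many hits fall short of the cut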
PrP 5UTR inh: inhibition of PrP 5' UTR reporter expression | cell-based PrP 5' UTR mRNA reporter, plate reader | inhibition, % (concentration not given with the values) | 0.35% of 340,000 active | AID 488862, 2010;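 active = every replicate at 50% or more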;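 note: 0 = median of the neutral control wells; tested in H4 reporter cells; numbers are from one replicate; inactives centre near -14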
Autofluor counter: compound fluorescence in toxin protease inhibitor counterscreen; compound autofluorescence counterscreen, microsphere flow cytometry; active compounds read high; fluorescence intensity (no concentration beside the values); 3.1% of 360,000 active;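 active = at least 3 SD above the mean of all compounds, about 16000 in these data; inconclusive = too few beads counted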;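 note: 100 nL of 1 mM stock went into each well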
BJeLR lethal: MLPCN primary cell-based screen for lethality selective to Ras in HRASV12 cells | AID 1554, 2009 | 0.17% of 300,000 active | inhibition, % (test concentration not listed) | BJeLR (HRASV12) viability, CellTiter-Glo ATP luminescence, 48 h; reference of the scale not given here;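 active = replicate mean above 50%; inconclusive = above 50% but judged a plate artefact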;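 note: 50 nL library stock added to about 25 µL; numbers are from one replicate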
ugtP null kill: growth inhibition of ugtP-null S. aureus, primary screen, RN4220 ugtP deletion, OD600. 16 h; some inactives read as strong as hits. growth inhibition, % (no concentration beside the values). 0.54% of 330,000 active. AID 1259309, 2017;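 active = z-score under -3 and OD600 up to 0.15 on both plates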;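 note: plate controls were untreated wells for no effect and antibiotic for full effect; wells of about 80 µL received 100 nL stock; the first replicate is given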
Mtb hypoxia rep growth: also measured in Mtb hypoxia rep; calls as there; growth inhibition, %; measured here: M. tuberculosis growth (absorbance);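 0% = vehicle and 100% = reference antibiotic; read after six days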
An asterisk follows results filed as active; ? = inconclusive; · = not tested or not shown.

SMILES	RN4220 kill	Mtb hypoxia rep	Mtb hypoxia rep growth	PrP 5UTR inh	Autofluor counter	BJeLR lethal	ugtP null kill
CC1CCCC(C)N1C(=O)CSc1nnc(NC(=O)Cc2cccs2)s1 (configuration not stated)	0.1	11.4	6.8	-20.3	9854	13.0	1.5
CSc1cc(-c2ccccc2)n(Cc2ccc(Cl)cc2Cl)c(=O)c1C#N	-6.1	·	·	-1.7	2748	10.4	-16.3
CCOc1ccc(Br)cc1S(=O)(=O)Nc1cccnc1	-2.3	-3.6	6.6	-14.9	6043	-3.2	0.6
CN(C)S(=O)(=O)c1ccc(Cl)c(NC(=O)CSc2nnnn2-c2ccc(O)cc2)c1	-2.7	4.7	7.2	-20.4	4349	4.2	-16.4
O=C(CCN1C(=O)c2ccccc2C1=O)Nn1cnnc1	1.9	-3.2	7.0	-7.1	11624	-7.3	-1.0
Cc1ccc(NC(=O)ON=Cc2cccc([N+](=O)[O-])c2)cc1	3.6	11.0	4.2	·	·	·	0.6
CON=CC(=NNc1ccc(C)cc1)C(=O)c1ccc(OC)cc1	-8.2	12.8	17.5	·	·	·	-6.8
COc1cc(OC)c(C(=O)NC2CC(C)(C)NC(C)(C)C2)cc1OC	1.8	2.3	-4.7	-18.9	3432	-9.9	14.6
CCCNS(=O)(=O)c1ccc(CCC(=O)Nc2ccc3c(c2)OCCO3)cc1	3.4	-0.7	-1.3	-14.9	2470	-4.7	2.2
O=C(Cn1c(=O)cnc2ccccc21)N1CCN(S(=O)(=O)c2cccc([N+](=O)[O-])c2)CC1	-0.3	-7.1	-4.4	-14.6	4115	1.9	3.2
COc1cccc(COC(=O)c2ccc(S(=O)(=O)N3CCC(C)CC3)cc2)c1OC	-2.5	11.7	-1.0	2.2	6540	4.2	3.5
Cc1ccc(-n2c(=S)sc3c(=O)n(-c4ccc(F)cc4)c(SCC(=O)O)nc32)cc1C	4.0	6.3	-8.7	-4.0	3227	-1.6	12.1
Cn1c(CO)cnc1SCC(=O)c1ccc(Br)cc1	0.7	-5.7	-10.7	-21.1	2367	3.6	6.0
Cc1oc2c(CN3CCCC3)c(O)ccc2c(=O)c1-c1ccc(Br)cc1	2.9	14.2	5.2	-3.4	10934	-8.5	-9.1
C=CCC1(CC=C)CCCN1Cc1nc(COc2ccccc2)no1	-3.9	-15.7	11.3	-17.8	11878	4.9	0.2
COc1ccc2c(C)c(CCC(=O)N3C[C@H]4C[C@@H](C3)c3cccc(=O)n3C4)c(=O)oc2c1	5.2	·	·	-7.6	5080	8.4	-12.4
CN(Cc1nc(Cc2cccc(F)c2)no1)CC1CCOCC1	7.8	6.6	0.2	-3.8	4246	-19.6	3.3
CCC1CCCCN1CCCNC(=O)c1c(O)nc2c(C)cccn2c1=O (configuration not stated)	4.6	7.0	-1.8	-1.2	6297	3.5	5.6
CCOC(=O)/C(C#N)=C/c1ccc(-c2ccsc2C(=O)OC)o1	5.1	1.2	5.8	-63.7	6318	8.8	6.3
CCOC(=O)c1cc2c(=O)n3ccccc3nc2n(Cc2ccccc2)c1=N	2.4	4.9	6.3	2.1	3849	-2.0	3.9
CN(Cc1ccon1)Cc1cn[nH]c1-c1ccc(-c2ccccc2)cc1	3.1	6.8	6.5	-13.3	2514	-2.3	-11.2
CCOC(=O)C1CCN(c2c(NCCC(C)C)c(=O)c2=O)CC1	6.8	-11.2	-5.9	-2.5	5399	-15.9	2.4
Cc1csc2ncc(C(=O)N3CCc4ccccc43)c(=O)n12	11.3	-1.3	9.4	0.1	5723	2.5	5.2
CCCC(=O)OCC(=O)Nc1ccc(N=Nc2ccccc2)cc1	3.7	3.1	2.9	-105.2	2023	·	-1.8
Cn1c(=O)cc(SCC(=O)NCC2CCCO2)c2ccccc21 (configuration not stated)	2.4	0.2	1.5	-3.2	4334	-9.6	-3.1
COc1ccc(CC(=O)NCC2CCCN(Cc3ccccc3Cl)C2)cc1 (configuration not stated)	2.2	5.7	4.0	-6.0	3762	-2.9	5.6
O=C(COC(=O)Cc1ccc(F)cc1)Nc1ccc(Cl)cn1	8.5	-3.2	2.0	3.2	4452	·	8.6
O=C(N/N=C/c1ccccc1F)c1cc2c(ccc3ccccc32)o1	·	·	·	-43.2	5714	1.3	·
O=C(NCc1cccnc1)Nc1cccc([N+](=O)[O-])c1	-1.6	-2.6	4.9	-8.2	?	-5.3	-4.9
CN(CC(=O)Nc1cccc(F)c1)C(=O)CCCc1c[nH]c2ccccc12	1.7	9.6	2.9	-9.8	3632	·	0.1
CC(=O)c1c(C)[nH]c(C(=O)Nc2ccc(Cl)c(S(=O)(=O)N3CCOCC3)c2)c1C	4.5	-3.4	-8.7	-1.6	1982	3.6	-2.9
Cc1nc(C)c(C(=O)NN=Cc2cn(C)c3ccccc23)s1	3.6	0.4	10.4	·	·	·	2.3
O=S(=O)(c1ccccc1)N1CCCCC1CCc1ccccc1 (configuration not stated)	5.4	10.4	8.0	-52.4	3530	·	22.5
CCN(Cc1nc2cc(Cl)ccc2c(=O)[nH]1)C(=O)c1cccc(NC(=O)c2cccs2)c1	2.3	1.1	2.0	-9.8	8283	·	1.4
O=C(N[C@@H](Cc1ccccc1)C(=O)N[C@@H](Cc1ccccc1)C(=O)O)OCc1ccccc1	·	·	·	-25.5	4212	7.7	·
O=C(CO/N=C/c1ccccc1)N1c2ccccc2Oc2ccccc21	·	·	·	-19.4	4667	1.9	·
COc1ccc(CCNC(=O)Cn2c(=O)n(-c3ccc(F)cc3)c(=O)c3sccc32)cc1OC	-1.0	-0.5	4.8	-25.5	5048	-2.2	1.1
COc1cccc(C2C(C(=O)c3ccc(C)o3)=C(O)C(=O)N2c2cc(C)on2)c1 (configuration not stated)	4.7	0.7	0.1	-14.8	5927	-3.4	0.8
O=C(NCCCN1CCCC1)c1ccc2c(c1)N(Cc1ccccc1F)C(=O)c1ccccc1S2=O (configuration not stated)	-4.1	-16.9	-10.2	-7.9	8044	6.7	-9.3
COc1c(OC(C)=O)ccc(/C=C/c2ccc3cccc(OCc4ccccc4)c3n2)c1[N+](=O)[O-]	-4.3	7.5	7.5	-28.9	1957	2.7	-12.1
COc1ccc2nc(C=NNC(=O)CCNC(=O)OC(C)(C)C)ccc2c1	4.5	19.0	9.5	·	·	·	4.6
COC(=O)/C=C1/SC(=Nc2ccc(Cl)c(Cl)c2)NC1=O	-5.3	4.2	5.0	·	5389	2.1	-15.6
O=C(C[n+]1cc(-c2ccc(Cl)c(Cl)c2)n2c1CCC2)c1cccs1	-1.1	0.0	3.1	-25.8	3983	0.7	3.6
O=C(CSc1nnc(-c2csc3c2CCCC3)o1)Nc1ccccc1	3.7	15.1	18.8	-23.1	5547	-1.2	7.0
CC1CCCCC1NC(=O)c1nnc(Cc2ccc(Cl)cc2)o1 (configuration not stated)	-2.3	·	·	-55.4	6050	-6.2	2.9
COc1cc(OC)cc(C(=O)Nc2nc(CC(=O)NCc3ccccc3OC)cs2)c1	3.9	3.6	2.9	-21.3	5030	6.1	27.4
CCn1c2ccccc2c2cc(NC(=O)Cc3ccc(S(=O)(=O)N4CCOCC4)s3)ccc21	-8.8	·	·	3.9	3031	-0.7	2.5
CCOC(=O)CSc1ccc(S(=O)(=O)N2CCC(C)CC2)cc1[N+](=O)[O-]	5.3	6.2	7.9	-16.3	10376	6.7	-0.7
Cc1ccccc1OCC(O)CN1C(=O)c2ccccc2C1=O (configuration not stated)	3.5	11.3	17.1	-25.7	4265	-1.6	0.6
CN1CCN(C(=O)c2ccc(CS(=O)Cc3ccc(Cl)cc3)o2)CC1 (configuration not stated)	1.6	4.8	3.8	-87.4	4897	4.6	10.0
O=C(NN1CCOCC1)c1ccc([N+](=O)[O-])cc1	4.6	9.6	10.9	-7.2	3369	4.3	14.1
Cc1ccccc1-n1c(SCC(=O)c2c(N)n(C)c(=O)n(C)c2=O)nnc1-c1cccnc1	1.0	3.5	-0.3	-4.1	2063	0.5	1.5
Cc1cc(C)c(C(=O)COC(=O)c2ccc(NC(=O)CC#N)cc2)cc1C	0.7	3.8	6.4	-8.4	4295	24.7	6.2
CC(=NNC(=O)CN1CCN(S(=O)(=O)c2ccc(Br)cc2)CC1)c1ccncc1	3.1	-2.2	5.7	·	·	·	8.2
O=[N+]([O-])c1ccc(-c2nnc(-c3ccccc3)c(N3CCOCC3)n2)cc1	2.2	5.5	9.7	-33.2	9773	4.6	8.0
C=C1CN(CC(=O)OC)S(=O)(=O)c2ccccc21	7.4	6.3	10.7	-33.5	3145	-4.1	3.8
CCOC(=O)c1nc2sc3c(c2c(=O)[nH]1)CCC(C)C3 (configuration not stated)	2.7	3.0	10.8	-44.3	5505	1.7	4.4
COCCn1c(-c2ccccc2)nc2ccccc21	3.0	10.3	5.6	-27.2	2522	6.0	-5.3
O=C(O)c1cc2n(n1)C(C(F)(F)F)CC(c1ccccc1)N2 (configuration not stated)	6.1	·	·	-22.6	3236	-11.3	6.4
CCOC(=O)[C@@H]1[C@H]2COc3ccc(Br)cc3[C@@H]2N2C(=O)N(c3ccc(C(F)(F)F)cc3)C(=O)[C@@]12C	·	·	·	-10.4	3527	8.1	·

Of the compounds above, these contain two or more sulfur atoms:
SMILES	RN4220 kill	Mtb hypoxia rep	Mtb hypoxia rep growth	PrP 5UTR inh	Autofluor counter	BJeLR lethal	ugtP null kill
CC1CCCC(C)N1C(=O)CSc1nnc(NC(=O)Cc2cccs2)s1 (configuration not stated)	0.1	11.4	6.8	-20.3	9854	13.0	1.5
CN(C)S(=O)(=O)c1ccc(Cl)c(NC(=O)CSc2nnnn2-c2ccc(O)cc2)c1	-2.7	4.7	7.2	-20.4	4349	4.2	-16.4
Cc1ccc(-n2c(=S)sc3c(=O)n(-c4ccc(F)cc4)c(SCC(=O)O)nc32)cc1C	4.0	6.3	-8.7	-4.0	3227	-1.6	12.1
O=C(CSc1nnc(-c2csc3c2CCCC3)o1)Nc1ccccc1	3.7	15.1	18.8	-23.1	5547	-1.2	7.0
CCn1c2ccccc2c2cc(NC(=O)Cc3ccc(S(=O)(=O)N4CCOCC4)s3)ccc21	-8.8	·	·	3.9	3031	-0.7	2.5
CCOC(=O)CSc1ccc(S(=O)(=O)N2CCC(C)CC2)cc1[N+](=O)[O-]	5.3	6.2	7.9	-16.3	10376	6.7	-0.7

(further entries)
SMILES	RN4220 kill	Mtb hypoxia rep	Mtb hypoxia rep growth	PrP 5UTR inh	Autofluor counter	BJeLR lethal	ugtP null kill
CCN(CC)c1ccc2c(cc1=O)[C@@H](NC)CCc1cc(OC)c(OC)c(OC)c1-2	·	·	·	80.3*	3621	56.0*	·
Cc1[nH][nH]c(=O)c1C(c1ccc(-c2ccc(Cl)c(Cl)c2)o1)c1c(C)[nH][nH]c1=O	18.9	5.2	6.5	-8.9	5175	-9.0	49.0
CC(=O)N1CCN(c2ccc(NCc3ccc(F)cc3)cc2)CC1	4.4	·	·	-10.4	5370	-6.3	4.4
CCOc1ccc(NC(=O)CN(C)C(=O)Cn2c(=O)oc3ccccc32)cc1OCC	1.0	3.5	-3.9	-14.8	5650	5.4	2.8
O=C(OCc1cc2ccccc2[nH]c1=O)c1ccccn1	-3.3	·	·	-5.8	4292	5.8	6.7
Cc1ccc(C(C)NC(=O)Cc2cccs2)c(C)c1 (configuration not stated)	2.0	17.8	13.3	-2.4	3614	-2.7	2.5
CC1(NC(=O)N2CCCCC2)CCS(=O)(=O)C1 (configuration not stated)	0.3	2.5	3.5	-26.4	22585*	2.9	-0.2
COc1ccc(CC(=O)NNC2=Nc3cccc4cccc2c34)cc1OC	3.8	3.9	8.3	-20.0	5483	-3.1	2.3
CCOC(=O)c1ccc(NC(=S)NCCCN2CCCC2=O)cc1	4.2	17.8	14.5	-6.5	5000	6.6	4.9
COc1ccc(C(CNC(=O)C(C)Oc2ccc(Br)cc2)N2CCCC2)cc1 (configuration not stated)	-4.2	2.3	0.5	-30.8	6818	-7.7	2.6
COC(=O)C1=C(c2ccc(-c3ccccc3)c(F)c2)CC2CCC1N2C(=O)NCCO (configuration not stated)	3.6	1.2	9.9	·	·	·	-11.9
Cc1noc(C)c1S(=O)(=O)N(CC(=O)NCc1ccccc1)c1ccc(C(C)C)cc1	4.6	-3.0	-11.1	-9.0	4620	-10.8	12.5
CC(C(=O)NC1CCCc2ccccc21)N1CCN(Cc2ccc3c(c2)OCO3)CC1 (configuration not stated)	0.3	10.0	16.5	-21.8	5959	2.3	-2.9
CC1Cc2ccccc2N1C(=O)CSCC(=O)O (configuration not stated)	1.1	·	·	15.2	2716	3.9	-3.6
O=C(C1CCCN(Cc2nc(-c3ccc(Cl)cc3)no2)C1)N1CCOCC1 (configuration not stated)	5.7	8.8	6.4	2.6	4236	8.7	4.6
